Source: PubChem BioAssay
HSV augment – HSV replication enhancement | HSV replication augmentation in cells, fold increase | maximum fold increase | hit rate 0.005% among 220,000 | AID 1956;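 active = peak rise of 1.5-fold or more in the series; tested in PC3 cells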;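 also: first round at 10 µM; read as green reporter fluorescence; hits show the peak of a series up to 25 µM; 1 = signal of infected wells without compound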
GALR2 ag – activates the human galanin receptor 2. O43603. GALR2-expressing cells, agonist activation read-out. activation, %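 (tested at 5 µM)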. hit rate 0.48% among 140,000;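 active = above mean plus 3 SD of all compounds, about 5% in these data, not always enough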;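 also: 0% = vehicle buffer wells and 100% = reference agonist at full effect; tested in CHO reporter cells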
PKD1 inh – PKD1 (human) kinase inhibition; Q15139; PKD1 kinase fluorescence polarization assay; inhibition, %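 (about 10 µM by stock and volumes)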; hit rate 0.056% among 200,000; AID 797;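 active = inhibition of 50% or more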;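 also: controls were vehicle for no effect and a reference inhibitor for full effect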
Target sequence (Q15139 whole entry, looked up): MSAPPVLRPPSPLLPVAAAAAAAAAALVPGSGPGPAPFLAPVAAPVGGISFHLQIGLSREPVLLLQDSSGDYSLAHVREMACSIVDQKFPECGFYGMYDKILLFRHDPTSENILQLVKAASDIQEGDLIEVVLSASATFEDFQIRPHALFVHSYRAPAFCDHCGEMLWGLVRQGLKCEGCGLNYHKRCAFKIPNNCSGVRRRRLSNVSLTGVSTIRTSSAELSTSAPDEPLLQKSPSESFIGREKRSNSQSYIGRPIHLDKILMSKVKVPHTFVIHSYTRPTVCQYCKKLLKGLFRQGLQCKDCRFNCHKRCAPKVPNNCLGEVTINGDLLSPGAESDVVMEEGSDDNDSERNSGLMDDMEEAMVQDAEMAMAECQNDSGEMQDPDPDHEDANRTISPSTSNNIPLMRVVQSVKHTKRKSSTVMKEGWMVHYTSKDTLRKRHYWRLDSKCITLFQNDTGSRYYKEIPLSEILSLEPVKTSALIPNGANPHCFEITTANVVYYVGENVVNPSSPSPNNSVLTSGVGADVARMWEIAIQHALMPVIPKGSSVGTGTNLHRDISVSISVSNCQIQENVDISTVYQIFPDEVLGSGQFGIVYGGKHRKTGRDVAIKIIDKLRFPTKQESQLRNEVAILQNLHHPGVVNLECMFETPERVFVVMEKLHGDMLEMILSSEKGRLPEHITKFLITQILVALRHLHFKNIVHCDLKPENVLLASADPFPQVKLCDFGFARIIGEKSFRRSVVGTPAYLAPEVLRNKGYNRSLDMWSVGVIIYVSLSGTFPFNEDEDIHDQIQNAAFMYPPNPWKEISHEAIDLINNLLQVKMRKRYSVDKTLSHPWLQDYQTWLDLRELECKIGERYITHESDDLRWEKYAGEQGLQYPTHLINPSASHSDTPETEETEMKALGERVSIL
INS promoter inh – TRM-6 insulin promoter activity inhibition | hit rate 0.9% among 130,000 | AID 1273 | inhibition, % at 2 µM | TRM-6 cells (human fetal islet line), insulin promoter-eGFP reporter, imaging; reporter expression induced with tamoxifen;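 active = inhibition above the mean plus 3 SD, with well images judged a real hit on visual review, cut at about 60% in these data, passing the limit was not always enough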
RGS16-Gao – modulates binding between human RGS16 and Galphao; hit rate 0.38% among 220,000; O15492+P09471; bead-based flow cytometry RGS16-Galphao binding, fluorescence; actives lie on both sides; AID 1441; binding response (% of control), % at 10 µM;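 active = below 25% or above 175%, edge rows of some plates excepted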;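 also: Galphao activated by GDP with aluminum fluoride before binding; 100% = wells without compound and 0% = beads without RGS; some results beyond the cut were filed as inactive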
INS promoter inh cell count – second read-out of INS promoter inh, no call of its own (marks repeat the call); normalized cell count, %; measured here: cell count, toxicity; reference of the scale not given here;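 cells exposed to compound for 48 h; stained nuclei by imaging scaled within each plate; lower means fewer cells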
HSV augment primary fold – further read-out of HSV augment, marked with its call; fold increase; compound at 10 µM; measured here: primary screen fold increase 10 uM; tested in PC3 cells;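 GFP signal in the first replicate; 1 = infected wells without compound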
* hit, by the source's call; i = inactive; / = no result given.

SMILES | HSV augment | HSV augment primary fold | GALR2 ag | PKD1 inh | INS promoter inh | INS promoter inh cell count | RGS16-Gao
CC(C)CCn1c(SCC(=O)c2ccccc2)nc2c1c(=O)[nH]c(=O)n2C | i | 1 | -0.6 | -1 | 34 | 67 | 101
COc1ccc(Oc2cc(C)c3cccc(C)c3n2)cc1 | i | 1.1 | -3.1 | -2 | -23 | 66 | 112
NNC(=S)NCc1ccc2c(c1)OCO2 | i | 1.1 | -0.9 | -7 | / | / | 99
CC1(C(=O)O)CCC(C(=O)NC2CCCCC2)C1(C)C (stereo not given) | / | / | 1.1 | -1 | -97 | 70 | 104
CCN1CCN(CCCOc2ccc(-c3ccccc3)cc2)CC1 | i | 0.84 | -1.4 | -2 | -12 | 108 | 95
O=S(=O)(c1cnccc1N1CCN(/N=C/c2ccc(Cl)cc2)CC1)N1CCCCC1 | i | 0.92 | -1.0 | 0 | -50 | 99 | 261
C#CCOCCOCCOCCNc1nc(N2CCN(C(=O)[C@H]([C@@H](C)CC)n3cc([C@@H](N)CC(C)C)nn3)CC2)nc(N2CCN(C(=O)[C@H]([C@@H](C)CC)n3cc([C@@H](N)CC(C)C)nn3)CC2)n1 | i | 0.98 | / | 2 | / | / | 97
Cc1ccc(C(=O)CC2(O)C(=O)N(CCc3ccccc3)c3ccc(Br)cc32)o1 (stereo not given) | i | 0.79 | -1.5 | -13 | 13 | 105 | 101
Cc1nn2c(Nc3ccccc3)c3c(nc2c1-c1ccccc1)CCC3 | i | 0.95 | 1.6 | -13 | 91* | 224* | 103
COC(=O)CCN1CCN(S(=O)(=O)c2ccccc2Br)CC1 | i | 0.92 | / | -5 | / | / | 95
Cc1ccc(S(=O)(=O)N/N=C/c2ccc(OCC(=O)Nc3ccccc3Cl)cc2)cc1 | / | / | -2.5 | -4 | -8 | 138 | 99
CN(C)C(=S)Nc1ccc(Br)c(Cl)c1 | i | 0.94 | / | / | / | / | 92
N=c1ccn(Cc2ccc(F)cc2)cc1 | i | 1.1 | / | / | / | / | 104
CCn1c(O)c(C=NC2CCCC(C)C2C)sc1=S (stereo not given) | i | 0.91 | / | / | / | / | 98
Cc1cc(C)cc(NC(=O)C(OC(=O)c2sccc2C)c2ccccc2)c1 (stereo not given) | i | 0.96 | -1.5 | 2 | / | / | 64
Cc1ccc2cc3c(N)c(C(=O)N4CCOCC4)sc3nc2c1 | / | / | -1.5 | -2 | 0 | 98 | 100
Cn1cccc1CNC1CCCC1 | i | 0.95 | -1.7 | -1 | -13 | 64 | 96
c1cncc(-c2nc(NCCCN3CCOCC3)c3c4c(sc3n2)CCC4)c1 | i | 0.7 | / | 6 | -36 | 111 | 110
O=C(O)CCC(=O)Nc1ccccc1C(=O)NCCc1ccccc1 | i | 1 | -1.9 | -15 | -31 | 103 | 44
O=C(NCCNCc1ccc(F)cc1)c1ccco1 | i | 0.93 | -2.7 | -4 | -15 | 64 | 104

Some of the entries above in a different format.
Order of results: HSV augment	HSV augment primary fold	GALR2 ag	PKD1 inh	INS promoter inh	INS promoter inh cell count	RGS16-Gao
O=S(=O)(c1cnccc1N1CCN(/N=C/c2ccc(Cl)cc2)CC1)N1CCCCC1
 : i	0.92	-1.0	0	-50	99	261
C#CCOCCOCCOCCNc1nc(N2CCN(C(=O)[C@H]([C@@H](C)CC)n3cc([C@@H](N)CC(C)C)nn3)CC2)nc(N2CCN(C(=O)[C@H]([C@@H](C)CC)n3cc([C@@H](N)CC(C)C)nn3)CC2)n1
 : i	0.98	/	2	/	/	97
Cc1ccc(C(=O)CC2(O)C(=O)N(CCc3ccccc3)c3ccc(Br)cc32)o1 (stereo not given)
 : i	0.79	-1.5	-13	13	105	101
Cc1nn2c(Nc3ccccc3)c3c(nc2c1-c1ccccc1)CCC3
 : i	0.95	1.6	-13	91*	224*	103
COC(=O)CCN1CCN(S(=O)(=O)c2ccccc2Br)CC1
 : i	0.92	/	-5	/	/	95
Cc1ccc(S(=O)(=O)N/N=C/c2ccc(OCC(=O)Nc3ccccc3Cl)cc2)cc1
 : /	/	-2.5	-4	-8	138	99
CN(C)C(=S)Nc1ccc(Br)c(Cl)c1
 : i	0.94	/	/	/	/	92
N=c1ccn(Cc2ccc(F)cc2)cc1
 : i	1.1	/	/	/	/	104
CCn1c(O)c(C=NC2CCCC(C)C2C)sc1=S (stereo not given)
 : i	0.91	/	/	/	/	98
Cc1cc(C)cc(NC(=O)C(OC(=O)c2sccc2C)c2ccccc2)c1 (stereo not given)
 : i	0.96	-1.5	2	/	/	64
Cc1ccc2cc3c(N)c(C(=O)N4CCOCC4)sc3nc2c1
 : /	/	-1.5	-2	0	98	100
Cn1cccc1CNC1CCCC1
 : i	0.95	-1.7	-1	-13	64	96
c1cncc(-c2nc(NCCCN3CCOCC3)c3c4c(sc3n2)CCC4)c1
 : i	0.7	/	6	-36	111	110
O=C(O)CCC(=O)Nc1ccccc1C(=O)NCCc1ccccc1
 : i	1	-1.9	-15	-31	103	44

The listing picks up, starting 2 compounds before the break.
SMILES | HSV augment | HSV augment primary fold | GALR2 ag | PKD1 inh | INS promoter inh | INS promoter inh cell count | RGS16-Gao
O=C(O)CCC(=O)Nc1ccccc1C(=O)NCCc1ccccc1 | i | 1 | -1.9 | -15 | -31 | 103 | 44
O=C(NCCNCc1ccc(F)cc1)c1ccco1 | i | 0.93 | -2.7 | -4 | -15 | 64 | 104
CC(=O)NCCn1c(SCc2cccc([N+](=O)[O-])c2)nc2ccccc2c1=O | i | 0.92 | / | -4 | -13 | 78 | 102
CCCCNC(=O)COc1ccccc1C(=O)c1cc(C#N)c(=O)n(CCOC)c1 | i | 1.2 | 0.1 | 1 | 67 | 85 | 129
O=C(Cn1nc(C(F)(F)F)c2c1CCC2)NCc1ccc(Cl)cc1 | i | 0.84 | -1.4 | -3 | -37 | 102 | 92
CC(C)n1c(C(F)(F)F)nc2cc(C(=O)N3CCC(O)CC3)ccc21 | i | 1 | / | / | / | / | 98
CC(=O)c1cc(C)ccc1OC(=O)c1cccnc1 | i | 0.91 | -2.3 | -3 | -3 | 105 | 90
COC(=O)/C(C#N)=C/c1occc1C | i | 1.1 | -1.9 | -5 | / | / | 96
COCCn1c(=S)[nH]c2cc(C(=O)N3CCN(Cc4ccc5c(c4)OCO5)CC3)ccc2c1=O | i | 0.88 | -2.6 | -7 | / | / | 138
CCOC(=O)N1CCc2c(sc3c2c(=O)n(Cc2ccccc2)c(=O)n3Cc2cccc(C)c2)C1 | / | / | -0.8 | -5 | -66 | 112 | 105
COC(=O)CSc1snnc1-c1ccc(F)cc1 | i | 1 | -2.6 | 4 | 44 | 130 | 97
Cc1ccc(Nc2nc(N/N=C\c3ccc4c(c3)OCO4)nc(N3CCOCC3)n2)cc1 | i | 0.74 | / | 10 | / | / | 100
Cc1ccc(S(=O)(=O)N2CCOCC2)cc1NC(=O)c1cc(-c2ccccn2)nc2ccccc12 | i | 1 | / | / | / | / | 104
COc1ccc(NC(=O)C23CC4CC(C2)CC(n2cnc(Br)n2)(C4)C3)cc1Cl | / | / | -1.5 | -3 | 3 | 126 | 103
C=CCn1c(=O)[nH]c2cc(C(=O)N3CCN(c4ccc(C(C)=O)cc4)CC3)ccc2c1=O | / | / | 0.4 | -12 | 35 | 62 | 92
COc1cc(/C=N/Nc2ccc(F)cc2F)cc(OC)c1O | i | 0.94 | -1.8 | -6 | 18 | 98 | 81
Nc1nc(-c2ccc(Cl)cc2)nn1C(=O)c1ccco1 | i | 0.91 | / | 0 | 25 | 78 | 118
O=C(NCc1ccncc1)/C(=C\c1ccc(F)cc1)NC(=O)c1ccccc1 | i | 0.98 | -0.2 | 2 | 47 | 95 | 108
O=C(NNc1nc2c(F)cc(F)cc2s1)c1ccccc1 | i | 0.96 | / | 8 | 63 | 99 | 101
C/C(N)=C(/C#N)C(=O)CSc1nncn1-c1ccccc1 | i | 1 | / | -1 | -76 | 111 | 104
Cn1c(=O)c(C(=O)COC(=O)c2cc(-c3ccco3)nc3ccccc23)c(N)n(CC2CC2)c1=O | / | / | -1.9 | -11 | 24 | 64 | 87
O=C(CSc1oc(-c2ccco2)nc1S(=O)(=O)c1ccc(F)cc1)NCC1CCCO1 (stereo not given) | i | 1 | -0.9 | -11 | 13 | 101 | 106
O=C(Cc1ccc(-n2cccc2)cc1)NC1CCCCCC1 | i | 0.89 | -2.4 | 7 | -5 | 142 | 54
COc1ccc(-c2cnc(SCC(=O)Nc3ccc4c(c3)OCO4)n2Cc2ccco2)cc1 | / | / | -2.1 | 9 | 6 | 83 | 60
COc1ccc(N=c2cc(-c3ccc(O)cc3)oc3ccccc23)cc1 | i | 0.83 | 0.3 | -8 | 9 | 89 | 112
CC(c1ccccc1)N1C(=O)CC(Sc2ncccc2C(=O)O)C1=O (stereo not given) | i | 0.84 | -0.9 | -2 | -20 | 81 | 83
CCCCNC(=O)c1cc2ccccc2s1 | i | 0.96 | / | 1 | -86 | 61 | 107
CCOc1ccc(NC(=O)c2cc3c(=O)n(C)c4ccccc4c3n2C)cc1 | i | 1.3 | -2.3 | -9 | / | / | 103
O=C(CCN1CCN(c2ccccc2F)CC1)Nc1ccc2c(c1)OCO2 | i | 1.1 | -1.2 | -1 | 12 | 137 | 102
COc1ccccc1NC(=O)Nc1cc(F)ccc1F | i | 0.9 | / | 1 | / | / | 101
O=C(COC(=O)c1ccc(NS(=O)(=O)c2cccs2)cc1)NCC1CCCO1 (stereo not given) | i | 1.1 | / | -4 | / | / | 90
c1cncc(-c2nc(NCc3cccs3)c3ccccc3n2)c1 | i | 0.89 | / | -2 | -45 | 63 | 102
Cc1ccc2nc(C)cc(Nc3ccc([N+](=O)[O-])cc3)c2c1 | i | 0.72 | / | -7 | / | / | 109
Cn1c(=O)oc2cc(S(=O)(=O)N3CCCC(C(=O)NCCN4CCOCC4)C3)ccc21 (stereo not given) | i | 0.83 | -2.0 | -7 | / | / | 101
CC(=O)N1CCN=C1SCc1cccc(C(F)(F)F)c1 | i | 0.97 | -2.0 | -8 | / | / | 97
CC(=O)COc1ncnc2c(Cl)cc(Cl)cc12 | i | 0.98 | / | -2 | 17 | 94 | 102
O/N=C1/CCSc2ccccc21 | i | 0.88 | -2.1 | -10 | / | / | 99
Cc1cc(C)c2nc(Cl)c(Cl)nc2c1 | i | 1 | / | / | / | / | 100
CCC1CCCCN1C(=O)c1c[nH]c2ccc(S(=O)(=O)N(C)c3ccc(Cl)cc3)cc2c1=O (stereo not given) | i | 0.79 | -2.4 | 7 | -4 | 134 | 99
CCOc1ccccc1NC(=O)C(OC(=O)c1ccc(N(C)C)cc1)c1ccccc1 (stereo not given) | i | 1.1 | -1.4 | -10 | / | / | 96
CCc1nc(C)cc2c1sc1ccccc12 | i | 0.93 | / | / | / | / | 97
O=C(c1c(F)cccc1F)N1CCN=C1SCc1ccccc1 | i | 0.95 | / | / | / | / | 102
CCC(c1nnc(SCC(=O)NC23CC4CC(CC(C4)C2)C3)o1)N(C)C (stereo not given) | i | 1 | -2.6 | 2 | -28 | 145 | 99
Cc1nc2cc(NS(=O)(=O)c3ccc(Br)cc3)ccc2n1C | i | 0.97 | / | 3 | / | / | 97
CCOC(=O)c1ccc2ncc(-c3ccccc3)nc2c1 | i | 0.96 | / | 0 | / | / | 103
Cc1ccc(/C=C(\C#N)C(=O)Nc2c(C)cccc2C)s1 | i | 0.97 | -1.5 | -7 | -43 | 136 | 105
O=C(CSc1nnc(-c2ccco2)o1)NC1CCCCCC1 | i | 0.98 | 0.8 | -6 | / | / | 99
CCCCC1=CC2=C(c3ccco3)C(=O)C(C)(OC(=O)c3ccc(OC)cc3)C(=O)C2=CN1Cc1ccc(OC)cc1 (stereo not given) | i | 1 | / | / | / | / | 96
NC(N)=Nc1nc2ccc([N+](=O)[O-])cc2[nH]1 | i | 0.98 | / | / | / | / | 102
COC(=O)CSc1ncnc2c1sc1nc(-c3ccco3)c3c(c12)CC(C)(C)OC3 | / | / | -2.1 | -3 | 40 | 144 | 84
Cc1ccc(C(=O)c2ccc([N+](=O)[O-])cc2)cc1C | i | 0.64 | 0.7 | 0 | 50 | 154 | 101
CCOc1ccc(NC(=O)CSc2ncn[nH]2)c([N+](=O)[O-])c1 | i | 0.92 | -1.3 | -16 | / | / | 95
